# Yeast UUG start: alters start codon recognition fidelity in yeast. S. cerevisiae UUG-firefly luciferase reporter, luminescence/redox ratio. activity score, % at 18.7 µM. 350,000 compounds, 0.13% hits. AID 602363;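 active means replicate mean at a twofold rise or more, about +100% in these data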;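 further: firefly luciferase made from a UUG start codon reports start codon fidelity; reporter light over untreated wells divided by growth signal over untreated wells; some hits fall short of that in this replicate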
# HIV Env fusion: HIV envelope-mediated fusion inhibition; HeLa-JRFL Env/CEM21 cell fusion, luciferase; inhibition, % at 12.3 µM; 360,000 compounds, 1.1% hits;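 active means mean replicate inhibition score of at least 50 and every replicate individually at or above 50; inconclusive means only one of the two criteria met; inactive means mean below 50 and not all replicates reaching 50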;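 further: 0% = plate neutral controls and 100% = maraviroc near 300 nM; one replicate is shown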
# * marks the source's active call; other numbers are inactive results; ? = inconclusive; [ ] = dose if it differs, or a comment.
SMILES,Yeast UUG start,HIV Env fusion
COc1cccc(-c2ccc3c(c2)O[C@@H](CN(C)C(=O)c2ccccc2F)[C@@H](C)CN([C@@H](C)CO)S3(=O)=O)c1,23,10[16.7 µM]
CCCC(=O)Nc1ccc2c(c1)C(=O)N(C)[C@H]1CC[C@H](CC(=O)NCCN3CCCCC3)O[C@@H]1CO2,-6,-10[16.7 µM]
CNC[C@H]1Oc2c(NC(=O)c3ccncc3)cccc2C(=O)N([C@@H](C)CO)C[C@@H]1C,-17,-7[16.7 µM]
C[C@@H]1CN([C@H](C)CO)C(=O)c2cc(N(C)C)ccc2O[C@@H]1CN(C)Cc1ccc2c(c1)OCO2,31,29[16.7 µM]
CCCNC(=O)N(C)C[C@H]1Oc2cc(-c3ccc(C)cc3)ccc2S(=O)(=O)N([C@H](C)CO)C[C@H]1C,8,-37[16.7 µM]
CCCC#Cc1ccc2c(c1)O[C@H](CN(C)Cc1cncnc1)[C@H](C)CN([C@@H](C)CO)S2(=O)=O,-5,20[16.7 µM]
C[C@@H]1CCCCO[C@@H](CN(C)S(=O)(=O)c2cccs2)[C@@H](C)CN([C@@H](C)CO)C(=O)c2cc(NS(=O)(=O)c3cn(C)cn3)ccc2O1,-11,-1[16.7 µM]
CC(C)CC#Cc1ccc2c(c1)O[C@H](CN(C)C(=O)Cc1ccccn1)[C@@H](C)CN([C@@H](C)CO)S2(=O)=O,0,-7[16.7 µM]
C[C@H]1CCCCO[C@H](CN(C)C(=O)Nc2cccc3ccccc23)[C@@H](C)CN([C@@H](C)CO)C(=O)c2cc(NS(=O)(=O)c3ccccc3)ccc2O1,0,27[16.7 µM]
CCNC(=O)C[C@H]1CC[C@@H]2[C@@H](COc3ccc(NC(=O)Nc4ccccc4C)cc3C(=O)N2C)O1,3,17[16.7 µM]
COc1ccc(NC(=O)N(C)C[C@@H]2Oc3c(NC(=O)c4ccncc4)cccc3C(=O)N([C@@H](C)CO)C[C@@H]2C)cc1,-5,5[16.7 µM]
CC(C)C#Cc1cnc2c(c1)C(=O)N([C@@H](C)CO)C[C@@H](C)[C@H](CN(C)C(=O)Nc1ccccc1)O2,10,12[16.7 µM]
CO[C@@H]1CN(C)C(=O)c2ccc(NC(=O)C3CC3)cc2OC[C@@H](C)N(C(=O)c2cnccn2)C[C@H]1C,-15,20[16.7 µM]
COc1ccc(NC(=O)N(C)C[C@H]2Oc3ccc(NS(=O)(=O)c4ccc(Cl)cc4)cc3CC(=O)N([C@H](C)CO)C[C@@H]2C)cc1,13,2[16.7 µM]
CCS(=O)(=O)Nc1ccc2c(c1)C(=O)N(C)C[C@@H](OC)[C@@H](C)CN(C(C)=O)[C@H](C)CO2,4,3[16.7 µM]
COc1ccc(NC(=O)Nc2ccc3c(c2)C(=O)N([C@@H](C)CO)C[C@H](C)[C@H](CN(C)Cc2ccncc2)OCCCC[C@@H](C)O3)cc1,1,3[16.7 µM]
O=C(C[C@H]1CC[C@H]2[C@@H](COC[C@@H](O)CN2Cc2nccs2)O1)N1CCC(Cc2ccccc2)CC1,-5,7[16.7 µM]
C[C@H](CO)N1C[C@H](C)[C@@H](CN(C)C(=O)C2CCCCC2)OCCCC[C@H](C)Oc2ccc(NC(=O)Nc3ccc(F)cc3)cc2C1=O,-6,-17[16.7 µM]
COc1ccc(S(=O)(=O)N(C)C[C@@H]2Oc3ccc(NC(=O)c4ccncc4)cc3CC(=O)N([C@@H](C)CO)C[C@@H]2C)cc1,-10,-2[16.7 µM]
C[C@H](CO)N1C[C@H](C)[C@@H](CN(C)C(=O)CCCN(C)C)OCCCC[C@H](C)Oc2ccc(NS(=O)(=O)c3ccc(F)cc3)cc2C1=O,14,-9[16.7 µM]
CO[C@H]1CN(C)C(=O)c2cc(NS(=O)(=O)c3ccc(Oc4ccccc4)cc3)ccc2OC[C@H](C)NC[C@H]1C,3,-31[16.7 µM]
Cc1ccc(S(=O)(=O)N(C)C[C@@H]2OCCCC[C@@H](C)Oc3ccc(NC(=O)Nc4ccc(F)cc4)cc3C(=O)N([C@H](C)CO)C[C@@H]2C)cc1,9,3[16.7 µM]
COc1ccc(CN(C)C[C@@H]2OCCCC[C@@H](C)Oc3ccc(NC(=O)Nc4ccccc4)cc3C(=O)N([C@H](C)CO)C[C@@H]2C)cc1,2,-29[16.7 µM]
COc1ccc(S(=O)(=O)N(C)C[C@@H]2Oc3c(NS(=O)(=O)c4ccc(F)cc4)cccc3C(=O)N([C@H](C)CO)C[C@H]2C)cc1,35,-34[16.7 µM]
C[C@@H]1CN([C@H](C)CO)C(=O)c2cc(Br)cnc2O[C@H]1CN(C)C(=O)C1CCCCC1,-1,-11[16.7 µM]
Cc1noc(C)c1S(=O)(=O)N(C)C[C@H]1OCCCC[C@H](C)Oc2ccc(NS(=O)(=O)c3ccc(F)cc3)cc2C(=O)N([C@H](C)CO)C[C@H]1C,9,-9[16.7 µM]
C[C@H](CO)N1C[C@H](C)[C@H](CN(C)S(=O)(=O)c2cn(C)cn2)Oc2c(NS(=O)(=O)c3ccccc3)cccc2C1=O,-11,-7[16.7 µM]
CCS(=O)(=O)NCC[C@@H]1CC[C@H](NS(=O)(=O)c2cccc(Cl)c2)[C@H](CO)O1,-9,7[16.7 µM]
O=C(C[C@@H]1C=C[C@H](NC(=O)Nc2cc(F)ccc2F)[C@H](CO)O1)NCc1ccccn1,-10,-4[16.7 µM]
C/C=C/c1cnc2c(c1)C(=O)N([C@H](C)CO)C[C@H](C)[C@@H](CN(C)Cc1ccncc1)O2,-3,3[16.7 µM]
C/C=C/c1ccc2c(c1)O[C@@H](CN(C)C(=O)c1ccncc1)[C@H](C)CN([C@@H](C)CO)S2(=O)=O,3,1[16.7 µM]
O=C(O)C[C@H]1C=C[C@@H](NC(=O)Nc2ccccc2)[C@@H](CO)O1,-21,11[16.7 µM]
O=C(C[C@H]1C[C@@H]2c3cc(NS(=O)(=O)c4ccc(F)cc4)ccc3O[C@@H]2[C@@H](CO)O1)N1CCCCC1,11,14[16.7 µM]
C[C@H]1CCCCO[C@@H](CN(C)C(=O)C2CCCCC2)[C@@H](C)CN([C@@H](C)CO)C(=O)c2cc(NS(=O)(=O)c3cn(C)cn3)ccc2O1,4,-1[16.7 µM]
Cc1noc(C)c1NC(=O)N(C)C[C@@H]1OCCCC[C@H](C)Oc2ccc(NS(=O)(=O)c3ccc(F)cc3)cc2C(=O)N([C@@H](C)CO)C[C@@H]1C,183*,7[16.7 µM]
COc1ccc(S(=O)(=O)N[C@H]2C=C[C@@H](CC(=O)N3CCC(Cc4ccccc4)CC3)O[C@H]2CO)cc1,-4,?
COc1ccc(NC(=O)Nc2ccc3c(c2)CC(=O)N([C@@H](C)CO)C[C@@H](C)[C@H](CN(C)C(=O)Nc2c(C)noc2C)O3)cc1,18,-13[16.7 µM]
N#C[C@@H]1[C@@H](c2ccc(-c3cccc(F)c3)cc2)[C@@H](CO)N1C(=O)NC1CCCC1,8,32[16.7 µM]
CC(C)NC(=O)N[C@@H]1CC[C@H](CCNS(=O)(=O)c2ccc(Cl)cc2)O[C@@H]1CO,9,-9[16.7 µM]
O=C(C[C@H]1C[C@@H]2c3cc(NC(=O)Cc4ccncc4)ccc3O[C@@H]2[C@H](CO)O1)NCc1ccc(-c2ccccc2)cc1,14,-18[16.7 µM]
CCNC(=O)C[C@@H]1CC[C@H]2[C@@H](COc3ccc(NC(=O)C4CCOCC4)cc3C(=O)N2C)O1,-2,-21[16.7 µM]
Cc1ccc(S(=O)(=O)NCC[C@@H]2CC[C@H](NC(=O)c3cccnc3)[C@@H](CO)O2)cc1,-13,7[16.7 µM]
Cc1noc(C)c1NC(=O)Nc1ccc2c(c1)C(=O)N([C@@H](C)CO)C[C@H](C)[C@H](CN(C)C(=O)NC1CCCCC1)OCCCC[C@@H](C)O2,18,-14[16.7 µM]
C[C@H]1CCCCO[C@H](CN(C)C)[C@@H](C)CN([C@@H](C)CO)C(=O)c2cc(NS(=O)(=O)c3ccccc3)ccc2O1,19,-6[16.7 µM]
COc1cccc(NC(=O)N[C@@H]2CC[C@@H](CC(=O)NCc3ccncn3)O[C@@H]2CO)c1,-8,2[16.7 µM]
CN(C)C(=O)C[C@@H]1C[C@H]2c3cc(NS(C)(=O)=O)ccc3O[C@H]2[C@@H](CO)O1,-4,13[16.7 µM]
CO[C@@H]1CN(C)C(=O)c2ccc(NS(C)(=O)=O)cc2OC[C@H](C)N(C(=O)C2CCCCC2)C[C@H]1C,5,-27[16.7 µM]
C[C@@H]1CN([C@@H](C)CO)C(=O)c2cc(NC(=O)Nc3ccc4c(c3)OCO4)ccc2O[C@@H]1CN(C)S(=O)(=O)c1cn(C)cn1,-5,0[16.7 µM]
C[C@@H]1CN([C@@H](C)CO)C(=O)Cc2cc(NS(=O)(=O)c3ccc(F)cc3)ccc2O[C@@H]1CN(C)S(=O)(=O)c1ccccc1,16,-10[16.7 µM]
C[C@@H]1CCCCO[C@H](CN(C)Cc2ccc3c(c2)OCO3)[C@H](C)CN([C@H](C)CO)C(=O)c2cc(NC(=O)NC3CCCCC3)ccc2O1,-10,8[16.7 µM]

# At a glance, 7 of the compounds above:
SMILES,Yeast UUG start,HIV Env fusion
COc1cccc(-c2ccc3c(c2)O[C@@H](CN(C)C(=O)c2ccccc2F)[C@@H](C)CN([C@@H](C)CO)S3(=O)=O)c1,23,10[16.7 µM]
CCCC(=O)Nc1ccc2c(c1)C(=O)N(C)[C@H]1CC[C@H](CC(=O)NCCN3CCCCC3)O[C@@H]1CO2,-6,-10[16.7 µM]
CNC[C@H]1Oc2c(NC(=O)c3ccncc3)cccc2C(=O)N([C@@H](C)CO)C[C@@H]1C,-17,-7[16.7 µM]
C[C@@H]1CN([C@H](C)CO)C(=O)c2cc(N(C)C)ccc2O[C@@H]1CN(C)Cc1ccc2c(c1)OCO2,31,29[16.7 µM]
CCCNC(=O)N(C)C[C@H]1Oc2cc(-c3ccc(C)cc3)ccc2S(=O)(=O)N([C@H](C)CO)C[C@H]1C,8,-37[16.7 µM]
CCCC#Cc1ccc2c(c1)O[C@H](CN(C)Cc1cncnc1)[C@H](C)CN([C@@H](C)CO)S2(=O)=O,-5,20[16.7 µM]
C[C@@H]1CCCCO[C@@H](CN(C)S(=O)(=O)c2cccs2)[C@@H](C)CN([C@@H](C)CO)C(=O)c2cc(NS(=O)(=O)c3cn(C)cn3)ccc2O1,-11,-1[16.7 µM]

# Next compounds follow:
SMILES,Yeast UUG start,HIV Env fusion
CS(=O)(=O)Nc1ccc2c(c1)[C@H]1C[C@@H](CC(=O)NCc3ccncc3)O[C@H](CO)[C@H]1O2,-3,-34[16.7 µM]
C[C@H](CO)N1C[C@H](C)[C@H](CN(C)C(=O)c2ccccc2)Oc2ncc(C3=CCCCC3)cc2C1=O,3,5[16.7 µM]
CNC[C@@H]1Oc2c(NC(=O)Nc3c(C)noc3C)cccc2C(=O)N([C@@H](C)CO)C[C@@H]1C,5,23[16.7 µM]
COc1ccc(S(=O)(=O)Nc2cccc3c2O[C@H](CN(C)Cc2ccc4c(c2)OCO4)[C@@H](C)CN([C@@H](C)CO)C3=O)cc1,10,-8[16.7 µM]
C[C@@H]1CN([C@@H](C)CO)C(=O)c2cc(NC(=O)Cn3cnnn3)ccc2O[C@@H]1CN(C)S(=O)(=O)c1ccc(F)cc1,0,-1[16.7 µM]
C[C@@H]1CCCCO[C@@H](CN(C)C(=O)CCCN(C)C)[C@@H](C)CN([C@H](C)CO)C(=O)c2cc(NS(=O)(=O)c3ccc(F)cc3)ccc2O1,9,19[16.7 µM]
COc1ccc(NC(=O)N(C)C[C@H]2Oc3ccc(NC(=O)NC(C)C)cc3CC(=O)N([C@@H](C)CO)C[C@H]2C)cc1,-16,32[16.7 µM]
C[C@@H]1CN([C@@H](C)CO)S(=O)(=O)c2ccc(-c3ccc(F)cc3)cc2O[C@@H]1CN(C)C(=O)Nc1ccccc1F,-2,-36[16.7 µM]
C[C@H](CO)N1C[C@H](C)[C@@H](CN(C)C(=O)C2CC2)Oc2ncc(-c3cccc(C#N)c3)cc2C1=O,-4,7[16.7 µM]
COCC(=O)Nc1ccc2c(c1)C(=O)N(C)[C@@H]1CC[C@H](CC(=O)NCc3ccccc3F)O[C@H]1CO2,18,-29[16.7 µM]
C[C@H]1CN([C@@H](C)CO)C(=O)c2cc(NS(C)(=O)=O)ccc2O[C@H]1CN(C)Cc1ccncc1,-14,-1[16.7 µM]
COC(=O)C[C@@H]1CC[C@H]2[C@@H](COc3ccc(NC(=O)Nc4ccc(C)cc4)cc3C(=O)N2C)O1,6,6[16.7 µM]
COc1ccc(-c2cn(CC[C@H]3CC[C@H](NC(=O)NC(C)C)[C@H](CO)O3)nn2)cc1,-5,16[16.7 µM]
C/C=C/c1ccc2c(c1)O[C@H](CN(C)C(=O)Cc1ccccn1)[C@H](C)CN([C@H](C)CO)S2(=O)=O,9,7[16.7 µM]
COc1ccccc1S(=O)(=O)N[C@@H]1C=C[C@H](CC(=O)NCc2cc(F)cc(F)c2)O[C@@H]1CO,-6,0[16.7 µM]
Cc1noc(C)c1NC(=O)N[C@H]1C=C[C@@H](CC(=O)Nc2ccc(-c3ccccc3)cc2)O[C@H]1CO,-5,4[16.7 µM]
COc1ccc(S(=O)(=O)Nc2ccc3c(c2)C(=O)N([C@@H](C)CO)C[C@H](C)[C@@H](CN(C)Cc2ccncc2)OCCCC[C@H](C)O3)cc1,13,-6[16.7 µM]
CCCN(C)C[C@H]1OCc2cnnn2CCCC(=O)N([C@H](C)CO)C[C@H]1C,11,-1[16.7 µM]
COCC(=O)Nc1ccc2c(c1)OC[C@H](C)N(CCc1ccccc1)C[C@@H](C)[C@@H](OC)CN(C)C2=O,2,0[16.7 µM]

# Screening results: PubChem, Broad Institute

# Some of the compounds tested; count on the stated rates, not on these rows.
